HCMV NEC inh = cytomegalovirus nuclear egress complex inhibition. AID 1918969. actives 0.15% (n = 190,000). HTRF UL50-UL53 interaction, normalized percent inhibition. inhibition, % (test concentration not listed);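 active = both replicates at 50% or more, plus weaker picks with an unusually low signal ratio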;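 also: stock transfer was 100 nL into about 20 µL; 0% = negative control wells and 100% = wells with untagged competitor protein; inactives centre near -12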
Sa growth 42C = inhibitors of Staphylococcus aureus growth at 42 °C; S. aureus RN4220 growth, OD600, 20 h; hits give low values; relative growth, % (test concentration not listed); actives 0.53% (n = 170,000); AID 720641;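 active = growth at 42 °C up to 50% and 20 or more points under that at 30 °C, or under 10% at both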;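 also: 300 nL library stock went into each well; scaled to the means of positive and negative controls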
GIV-Gai inh = blocks GIV peptide binding to rat Galpha-i3; actives 0.42% (n = 210,000); Galpha-i3/FITC-GIV peptide fluorescence polarization, 90 min; hits give low values; scaled: aluminum fluoride 0%, vehicle 100%; percent of control (FP), % (no concentration beside the values);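 active = replicate mean at 85% of control or lower, very high polarization wells dropped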;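 also: wells of about 15 µL received 100 nL stock; the first replicate is given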
Target sequence (P08753 whole entry, looked up): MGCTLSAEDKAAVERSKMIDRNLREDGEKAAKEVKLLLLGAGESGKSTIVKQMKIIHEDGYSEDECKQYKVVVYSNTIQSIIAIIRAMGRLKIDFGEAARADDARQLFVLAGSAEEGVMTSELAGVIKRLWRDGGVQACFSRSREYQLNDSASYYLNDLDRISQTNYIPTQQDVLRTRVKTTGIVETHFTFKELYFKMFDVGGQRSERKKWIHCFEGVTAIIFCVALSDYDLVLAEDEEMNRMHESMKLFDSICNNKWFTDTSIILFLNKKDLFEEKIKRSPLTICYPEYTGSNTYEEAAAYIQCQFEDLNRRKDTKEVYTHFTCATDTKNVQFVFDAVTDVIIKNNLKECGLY
Sa growth 42C second temp = second read-out of Sa growth 42C, no call of its own (marks repeat the call); relative growth, %; measured here: growth at 30 °C;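 optical density after 20 h as mean of two plates; 100% = untreated growth and lower means inhibition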
* marks the source's active call; other numbers are inactive results; . = no result given.

SMILES | HCMV NEC inh | Sa growth 42C | Sa growth 42C second temp | GIV-Gai inh
CC1Cc2cc(S(N)(=O)=O)ccc2N1Cc1cc2c(cc1Br)OCCO2 (stereo not given) | -34 | 109 | 64 | .
COc1cccc(NC(=O)CSc2nccn2Cc2ccc3c(c2)OCO3)c1 | . | 71 | 88 | 100
COc1cc(SC)ccc1C(=O)N(C)Cc1nc2ccccc2c(=O)[nH]1 | 10 | 121 | 99 | .
Cc1cc(C)c2c(n1)SCCN2C(=O)NCCC(=O)NC(C)C | -5 | . | . | 112
CSc1ccc(C2C3=C(CCCC3=O)NC3=C2C(=O)CCC3)cc1 | -23 | 108 | 93 | 102
O=C(Nc1ccc(Cl)cc1)Nc1nc(CC(=O)N2CCc3ccccc32)cs1 | -15 | . | . | 103
CCOc1ccc(OCC)c(NC(=O)C2CCCN(S(=O)(=O)c3ccc(C)cc3)C2)c1 (stereo not given) | -18 | 84 | 85 | 98
Cc1ccc(S(=O)(=O)C2(C(=O)N3CCCC3)CC2)cc1 | -2 | 117 | 86 | 106
Cc1csc2nc(CSc3ccccc3)cc(=O)n12 | 6 | 86 | 89 | 96
CCN(CC)C(=O)CC#N | -29 | 93 | 90 | .
O=S(=O)(c1ccc(F)cc1)c1nc(-c2ccc(F)cc2)oc1N1CCOCC1 | 5 | . | . | 106
Cc1ccc(Cn2ccnc2SCC(=O)NCc2ccccc2Cl)cc1 | . | 108 | 86 | 104

Of the compounds above, 2 have a Cl atom:
SMILES | HCMV NEC inh | Sa growth 42C | Sa growth 42C second temp | GIV-Gai inh
O=C(Nc1ccc(Cl)cc1)Nc1nc(CC(=O)N2CCc3ccccc32)cs1 | -15 | . | . | 103
Cc1ccc(Cn2ccnc2SCC(=O)NCc2ccccc2Cl)cc1 | . | 108 | 86 | 104

(listing goes on)
SMILES | HCMV NEC inh | Sa growth 42C | Sa growth 42C second temp | GIV-Gai inh
O=C1CCCC2=C1C(c1ccc(F)cc1)n1c(nc3ccccc31)N2 (stereo not given) | 2 | 84 | 88 | 99
O=C1CC2(CCCC2)C(=O)N1Cc1coc(-c2cccs2)n1 | 2 | 106 | 104 | .
O=C(NCC1COc2ccccc2O1)c1ccc2c(=O)n3c(nc2c1)CCCCC3 (stereo not given) | -8 | 77 | 98 | .
Cc1ccc(CNC(=O)C2CCN(c3ccncc3)CC2)cc1 | 14 | . | . | 104
N#Cc1ccc(NS(=O)(=O)c2cc(Cl)sc2Cl)cc1 | -6 | 37 | 20 | 105
CNS(=O)(=O)c1ccc(F)c(C(=O)OCC(=O)c2c[nH]c3ccccc23)c1 | -26 | 97 | 78 | .
Cc1noc(C(=O)N2CCCC2)c1Cl | -1 | 76 | 88 | 101
O=C(COC(=O)c1ccc2[nH]c3c(c2c1)CCCC3)c1ccc2c(c1)OCO2 | -26 | 111 | 90 | .
Cc1ccccc1NC(=O)C1CCCN(c2ccc3cc(S(=O)(=O)N4CCCCC4)ccc3n2)C1 (stereo not given) | -3 | . | . | 109
Cc1c(CCC(=O)N2CCCCC2)c(=O)oc2cc3occ(C(C)(C)C)c3cc12 | -8 | 109 | 91 | 98
CCCN(CCC)C(=O)CN(C)S(=O)(=O)c1ccc2c(c1)c(=O)n(C)c(=O)n2C | -39 | . | . | 98
C=CCOc1ccc(/C=C2\SC(=S)N(CC(=O)O)C2=O)cc1OC | -102 | . | . | 101
O=C(NCCCc1ccccc1)C1CCCN1c1nnc(N2CCCC2=O)s1 (stereo not given) | -28 | 84 | 75 | 100
COC(=O)c1ccccc1NC(=O)n1ncc2c(C)cccc21 | . | 92 | 92 | 107
Cc1cc(C)cc(C(=O)NCCc2sc(-c3cccc(F)c3)nc2C)c1 | 7 | . | . | 102
O=C(/C=C/c1ccccc1Cl)N1CCC(c2nc3ccccc3o2)CC1 | -33 | 105 | 89 | 101
O=C(Nc1ccc2nn(-c3ccccc3)nc2c1)C(c1ccccc1)c1ccccc1 | . | 106 | 93 | 107
O=C(OCCN1C(=O)c2cccc3c(N4CCCCC4)ccc(c23)C1=O)c1ccccc1[N+](=O)[O-] | -10 | . | . | 108
CCc1ccc(NC(=O)Cn2nc(CC)n3c(cc4sccc43)c2=O)cc1 | -3 | 110 | 96 | 106
CC1Cc2ccccc2N1C(=O)Cn1c(-c2cccnc2)ccc(C#N)c1=O (stereo not given) | -6 | 94 | 75 | 102
CCN(CC)C(=O)CSc1nnc(COc2ccc(C)cc2)n1N | 8 | 84 | 102 | 106
c1cc(N2CCOCC2)ccc1-c1noc(-c2ccc3c(c2)OCO3)n1 | 2 | . | . | 103
Cc1ccc(C2=NS(=O)(=O)N(C)C(C(=O)Nc3ccc(F)cc3F)=C2)cc1 | -34 | . | . | 106
CCN(CC)S(=O)(=O)c1ccc(C(=O)N2N=C3/C(=C/c4cccs4)CCCC3C2c2cccs2)cc1 (stereo not given) | -12 | 98 | 96 | .
CCc1ccc(NC(=O)C(C)Sc2ccc(S(=O)(=O)N3CCN(C)CC3)cn2)cc1 (stereo not given) | -14 | 110 | 95 | .
Cc1noc2ncn(Cc3c(F)cccc3Cl)c(=O)c12 | -25 | . | . | 108
C=CCn1c(=O)c(=O)n(Cc2ccc(C(=O)NCCCSCCC)cc2)c2ccccc21 | -10 | . | . | 101
COC(=O)c1sc(N)c(C(=O)OC)c1CSc1nnc(C(F)(F)F)n1C | -32 | 75 | 91 | .
Cc1ccc(NC(=O)CN(C)Cc2cc(=O)n3ccsc3n2)cc1 | -16 | 90 | 92 | .
O=C(NC1CCN(Cc2ccccc2)CC1)c1noc2c1CCc1sccc1-2 | -34 | . | . | 109
CS(=O)(=O)N1CCC(c2nc3ccccc3[nH]2)CC1 | -6 | 110 | 104 | 105
O=C(CCS(=O)(=O)c1ccc(Br)cc1)Nc1ccc(Cl)c(C(F)(F)F)c1 | . | 127 | 102 | 110
Cc1c(NC(=O)c2cc(-c3ccc(Cl)c(Cl)c3)on2)c(=O)n(-c2ccccc2)n1C | -1 | 98 | 89 | 106
CCCCS(=O)(=O)Nc1cccc(O)c1 | -24 | 97 | 96 | .
N#Cc1ccc(C2NC(=O)c3ccccc3N2)cc1 (stereo not given) | -30 | 88 | 86 | 100
Cc1cc(C)cc(NC(=O)CSc2nc(=O)n(CCN3CCOCC3)c3c2CCC3)c1 | . | 108 | 88 | 98
N#CCSc1nc(-c2ccccc2)cs1 | -4 | 93 | 101 | 107
CCn1c(NNS(=O)(=O)c2ccccc2F)nc2ccccc2c1=O | -8 | 93 | 97 | .
Nc1n[nH]c2c1CSc1ccc(Cl)cc1-2 | -18 | 82 | 67 | 107
Cc1cc(NC(=O)CSc2ncn[nH]2)no1 | -23 | . | . | 101
COc1ccc2c(CSc3nnc(Nc4ccccc4OC)s3)cc(=O)oc2c1 | -21 | 94 | 80 | .
Cc1ccccc1NCc1cccn1-c1nnc(N2CCN(c3ccccc3)CC2)s1 | -12 | . | . | 104
Nc1ccc(-c2cc(=O)n3[nH]cnc3n2)cc1 | -28 | . | . | 98
CCc1ccc(N=C2N=C(N)c3ccccc32)cc1 | . | 107 | 79 | 102
COc1ccc(OC)c(N(C)S(=O)(=O)c2ccc3c(c2)NC(=O)CC(=O)N3)c1 | -32 | 113 | 85 | 104
NC(=O)c1cc(S(=O)(=O)N2CCCC2)ccc1OCc1ccc(F)cc1 | 9 | 93 | 94 | .
CCCN(CCC)S(=O)(=O)c1ccc(C(=O)Nc2cccc3c2C(=O)c2ccccc2C3=O)cc1 | -4 | . | . | 105
CNC(=S)N/N=C1\CCOc2ccc3ccccc3c21 | 6 | 102 | 100 | 98
CCCCC(=O)Nc1nnc(S(=O)(=O)N2CCCCCC2)s1 | -3 | 115 | 93 | 98
COc1ccc(Nc2nc3ccccc3c(=O)s2)cc1 | . | 114 | 84 | 97
N#CCC(=O)NCc1ccccc1 | -20 | 93 | 85 | .
Cc1ccccc1C(=O)N1c2ncnn2C2(CCCCC2)[C@@H]2CCCC[C@@H]21 | -3 | 119 | 89 | 97
CCCn1c(/N=C/c2c[nH]c3ccccc23)nc2ccccc21 | -30 | 91 | 66 | .
COC(=O)CSc1nnc(CNC(=O)Cc2ccccc2)n1-c1ccc(OC)cc1 | -4 | 83 | 96 | 104
Cc1nn(CC(=O)NCC2CCCO2)c(=O)c2cc3ccccc3n12 (stereo not given) | -46 | . | . | 97
CCCCn1c(N)c(N(Cc2ccco2)C(=O)Cc2coc3cc(OC)ccc23)c(=O)[nH]c1=O | -21 | 86 | 69 | .
COc1ccccc1NC(=O)Cc1noc(CSc2nc3sc(C)c(C)c3c(=O)n2C(C)C)n1 | 6 | 97 | 97 | .
COC(=O)c1ccc(COC(=O)c2cccc(S(=O)(=O)NCc3ccccc3)c2)o1 | -6 | 71 | 85 | .
CN1CCN(S(=O)(=O)c2ccc(SCC(=O)NC3C4CC5CC(C4)CC3C5)nc2)CC1 (stereo not given) | -27 | 74 | 86 | .
CCC(Oc1ccc2c(c1)oc(=O)c1ccccc12)C(=O)OC (stereo not given) | -4 | 100 | 77 | 103
Other results.
SMILES | HCMV NEC inh | Sa growth 42C | Sa growth 42C second temp | GIV-Gai inh
CCN(C(=O)c1cc2ccccc2o1)c1nc2c(C)cccc2s1 | -7 | 110 | 91 | .
CCCc1cc(=O)n(CC(=O)Nc2ccccc2)c(-n2nc(C)cc2C)n1 | 7 | 89 | 85 | 105
CN(C)c1ccc(C2CC(c3ccccc3)=NN2C(=O)c2ccc(F)cc2)cc1[N+](=O)[O-] (stereo not given) | 17 | . | . | 107
c1csc(CN2CCCCCC2)c1 | -12 | 117 | 105 | 103
COc1cccc(NC(=O)c2ccc(COc3ccc(Cl)cc3)o2)c1 | 12 | 98 | 103 | 109
COc1ccc2cc3cc(C(=O)N(C)c4cc(C)ccc4C)oc3nc2c1 | -58 | 111 | 81 | 98
O=C(CSc1nnc(CCCN2C(=O)c3cccc4cccc(c34)C2=O)n1-c1ccccc1)NCCCN1CCOCC1 | -92 | . | . | 100
CC(C)(C)Oc1ccc(C(=O)N(Cc2ccc(F)cc2)C2CCOC(C)(C)C2)cc1 (stereo not given) | -10 | 102 | 58 | .
CCCCNC(=O)CC1Sc2ccccc2NC1=O (stereo not given) | -22 | 102 | 92 | 101
O=C(CN1C(=O)COc2ccccc21)N(CC1CCCO1)c1nc2ccccc2s1 (stereo not given) | -17 | 101 | 86 | .
Cc1ccc2nc(-c3ccc(C)s3)c(Nc3ccc4c(c3)OCCO4)n2c1 | -24 | 107 | 87 | 105
Cc1cc(C)c(C#N)c(SCC(=O)Nc2nsc(-c3ccc(Cl)cc3)n2)n1 | . | 94 | 72 | 99
Cc1cc(C(F)(F)F)nc2c(Cl)c(C3CC3)nn12 | -15 | 95 | 85 | 104
CCOC(=O)c1c(-c2ccccc2)c[nH]c1N | -10 | . | . | 60*
C=CCNC(=S)N1CCc2cc(OC)c(OC)cc2C1 | -7 | 105 | 100 | 106
CCOc1ccc(Nc2nc(C)c(NC(=O)c3cccc(F)c3)c(Nc3ccc(OCC)cc3)n2)cc1 | 8 | 109 | 109 | 105
Cn1c(=O)n(C)c2cc(S(=O)(=O)CC(=O)O)ccc21 | -10 | . | . | 93
CCN1CC2=C(OC(N)=C(C#N)C2c2ccc(OC)cc2)/C(=C\c2ccc(OC)cc2)C1 (stereo not given) | 14 | 110 | 91 | 126
CC(C)CCNC(=O)c1ccc2c(Cl)c3c(nc2c1)CCCC3 | . | 117 | 85 | 106
COCCNC(=O)c1c(NC(=O)c2cc(=O)c3cc(C)cc(C)c3o2)sc2c1CCCC2 | -19 | 104 | 84 | 104
O=C(NCc1ccccn1)c1ccc(NC2=NC3CS(=O)(=O)CC3S2)cc1 (stereo not given) | -11 | 95 | 89 | 105
CCOc1ccc(CNC(=O)c2cc3oc4ccccc4c3n2C)cc1 | 4 | 75 | 96 | 101
CC(C)CCNS(=O)(=O)c1ccc(Cl)c(Cl)c1 | -28 | 103 | 76 | .
CCOC(=O)CSc1nc2sc3c(c2c(=O)n1C1CCCCC1)CCN(C)C3 | -17 | . | . | 107

Continued (six carried over from the part before).
SMILES | HCMV NEC inh | Sa growth 42C | Sa growth 42C second temp | GIV-Gai inh
CC(C)CCNC(=O)c1ccc2c(Cl)c3c(nc2c1)CCCC3 | . | 117 | 85 | 106
COCCNC(=O)c1c(NC(=O)c2cc(=O)c3cc(C)cc(C)c3o2)sc2c1CCCC2 | -19 | 104 | 84 | 104
O=C(NCc1ccccn1)c1ccc(NC2=NC3CS(=O)(=O)CC3S2)cc1 (stereo not given) | -11 | 95 | 89 | 105
CCOc1ccc(CNC(=O)c2cc3oc4ccccc4c3n2C)cc1 | 4 | 75 | 96 | 101
CC(C)CCNS(=O)(=O)c1ccc(Cl)c(Cl)c1 | -28 | 103 | 76 | .
CCOC(=O)CSc1nc2sc3c(c2c(=O)n1C1CCCCC1)CCN(C)C3 | -17 | . | . | 107
Cc1cc(=O)oc2cc(OCC(=O)NCc3ccco3)ccc12 | -2 | 111 | 88 | 99
CC1CCc2c(sc3ncnc(Oc4ccccc4F)c23)C1 (stereo not given) | -10 | 39 | 49 | .
COc1ccc(OCc2c(C#N)c3ccccc3n2C)cc1 | -1 | 109 | 94 | .
Cc1c(NC(=O)C2CCN(S(=O)(=O)Cc3ccccc3)CC2)c(=O)n(-c2ccccc2)n1C | -23 | . | . | 105
Fc1ccc(OCc2nn3c(-c4ccccn4)nnc3s2)cc1 | -7 | . | . | 102
CCCCN(CC)CCNC(=O)c1c(C)oc2ncnc(N3CCOCC3)c12 | . | 67 | 93 | 105
CCC1CCCCN1S(=O)(=O)c1ccc(NC(=O)COc2ccc(OC)cc2)cc1 (stereo not given) | . | 88 | 79 | 108
